Source: PubChem (National Center for Advancing Translational Sciences (NCATS))
2A firefly: lowers the firefly signal of an FMDV 2A StopGo reporter | Potency, µM (doses to about 57.5 µM), without a hit: at the top dose signal change, negative = less light | HEK cells with a luciferase reporter of 2A StopGo recoding | actives 0.23% (n = 120,000); active = well fitted falling curve with a large enough effect; inconclusive = small, poorly fitted or top-dose-only effect; inactive = no such curve, though single readings can be large or run the other way; further: nearly all actives have a fitted effect of over 60% in size; overnight with compound
StopGo RLuc: FMDV 2A StopGo reporter, Renilla signal. actives 0.32% (n = 120,000). Potency, µM (highest dose often 57.5 µM), inactives show top-dose signal change, negative = less light. AID 1745857. HEK cells with a luciferase reporter of 2A StopGo recoding; active means well fitted falling curve with a large enough effect; inconclusive means small, poorly fitted or top-dose-only effect; inactive means no such curve, though single readings can be large or run the other way; further: nearly all actives have a fitted effect of over 55% in size; overnight with compound
The depositor's hits bear a star; ? = inconclusive; & = joins results of further samples; [ ] = dose if it differs, or a comment. On the % scale 0 is the no-effect control and ±100 the full control effect; potency means the concentration at half of the fitted maximal effect. This is a subset; rates above refer to the full screens.

canonical_smiles	2A firefly	StopGo RLuc
CCOC(=O)c1cnc(Nc2ccc(OC)cc2OC)c2ccccc12	11.0%	0.9%
Cc1nnc(NC(=O)CSc2nccn2Cc2ccc(Cl)cc2)s1	-2.2%	-6.2%
Nc1cc(Cl)ccc1OCC1CCCO1 (stereo not given)	28.8%	-5.5%[1.06 µM]
CCC(CO)(CO)NC(=O)c1nc(-c2cccc3[nH]ccc23)no1	0.0%	0.0%
CCc1ccccc1N(C)C(=O)c1cc2c(s1)-c1c(C)cccc1OC2	24.7%	4.0%
COCCCNC(=O)c1cc2c(=O)oc3ccc(C)cc3c2s1	-11.5%	0.7%
COC(=O)[C@@H](C)NC(=O)NCCCCCO	16.3%	0.0%
CCc1ccc2oc(=O)cc(CN3CCCCC3C)c2c1 (stereo not given)	2.8%	1.1%
Cc1cccc(C(N)=O)n1	-9.7%	3.0%
COc1cc2c(=O)n(Cc3ccccc3Cl)c(=O)n(CC(=O)Nc3ccccc3)c2cc1OC	-6.1%	10.6%
Cc1cn2c(=O)cc(COC(=O)c3ccc(NC(=O)C(C)Oc4ccccc4)cc3)nc2s1 (stereo not given)	4.1%	7.2%
CC(C)Cc1ccc(C(=O)c2cccs2)cc1	108.0%[activator]	16.8%
CS(=O)(=O)Cc1cccc(C(=O)NC(Cc2ccccc2)c2ccccc2)c1 (stereo not given)	16.0%	18.3%
Cc1ccn2c(Nc3ccc4c(c3)OCO4)c(-c3ccc(Cl)cc3)nc2c1	25.0%	14.5%
CCc1nn(CC(=O)Nc2ccc(C)cc2C)c(=O)c2cc3sccc3n12	-15.3%	-11.4%

Next section
canonical_smiles	2A firefly	StopGo RLuc
CCc1nn2c(=O)cc(COC(=O)c3cccc(NC(=O)c4cccs4)c3)nc2s1	-6.3%	-12.8%
Cc1ccc(Nc2cccc3ccccc23)cc1	160.5%[activator]	12.6%
CC1CCCCN1C(=O)Cn1c(=O)n(-c2ccc(Cl)cc2)c(=O)c2c3c(sc21)CCC3 (stereo not given)	-2.8%	-3.0%
CC(=O)Nc1ccc(NC(=O)c2cn(Cc3ccccc3)nc2-c2ccc(Cl)cc2)cc1	11.0%	37.0%[activator]
NC(N)=N/N=C/c1ccc(-c2ccccc2)cc1	45.8%[activator]	23.9%
O=C(Nc1nc(-c2ccncc2)cs1)c1ccc(S(=O)(=O)N2CCCCC2)cc1	5.2%	-11.3%
COc1ccc(-c2cccc(NS(=O)(=O)c3ccc(NC(C)=O)cc3)c2)nn1	-27.0%	87.3%[activator]
COc1ccc(OCCCn2c(C)nc3cc(C)c(C)cc32)cc1	?	?
Cc1cccc(NC(=O)C(C)Sc2ccccc2C(=O)NCC(=O)C(C)(C)C)c1 (stereo not given)	-4.7%	1.4%
COc1ccc(NC(=O)CCc2c(C)c3ccc(OC)cc3oc2=O)c(OC)c1	-3.7%	29.7%
COc1ccc(Cl)cc1S(=O)(=O)N1CCN(Cc2cccc(F)c2)CC1	-19.3%	15.7%
CCOc1ccc2c(c1)O/C(=C\c1ccc(OS(C)(=O)=O)c(OC)c1)C2=O	0.0%	-2.1%
COc1ccc(CCNC(=O)c2ccc3c(Cl)c4c(nc3c2)CCCC4)cc1OC	-16.4%	-2.4%
CCn1c(C(=O)Nc2cc(Cl)ccc2C)cc2sc(Cl)cc21	0.0%	-10.0%
COc1ccc(-c2coc3cc(OCC(=O)NCc4cccc(Cl)c4)ccc3c2=O)cc1	50.8%[activator]	0.9%

Continued.
canonical_smiles	2A firefly	StopGo RLuc
Cc1nc(C)c(CC(=O)Nc2nnc(C)s2)c(=O)[nH]1	-5.4%	-8.1%
CC[N+](CC)(CC#Cc1ccccc1)CC(=O)OC	-5.8%	0.5%
CNC(NC(=O)c1ccc(C)cc1)C(Cl)(Cl)Cl (stereo not given)	16.3%	16.2%
COc1cccc(CNC(=O)c2nn(C)c3c2CS(=O)(=O)c2ccccc2-3)c1	-13.4%	11.9%
c1cc(CNCCCn2ccnc2)ccn1	5.5%	3.9%
Cc1ccc(-c2nc3cc(Cl)ccc3o2)cc1NC(=O)c1ccc([N+](=O)[O-])o1	192.4%[activator]	-13.2%
COCCn1c(C)cc(O)c(C(c2ccccc2)N2CCCCC2)c1=O (stereo not given)	-15.2%	-7.5%
Cn1c(SCC(=O)N2CCc3ccccc32)nnc1-c1cccc(F)c1	1.0%	2.4%
CCOC(=O)N1CCN(C(=O)c2cc(-c3cccs3)nc3ccccc23)CC1	88.7%[activator]	74.8%[activator]
CCn1nc(C(=O)OCc2nc(-c3ccccc3)no2)c2ccccc2c1=O	27.8%	-1.5%
C=CCn1c(=O)c2c(nc(-n3nc(C)c(C)c3C)n2CC)n(C)c1=O	6.8%	1.8%
O=C(CSc1nc2ccccc2c(=O)n1-c1ncn[nH]1)Nc1ccccc1	12.9%	0.6%
CC(C)NC(=O)Cn1ccc2ccc(Cl)cc21	13.1%	-1.7%
CCC(C)NC(=O)C1CCC(CNS(=O)(=O)c2ccc(Cl)cc2)CC1 (stereo not given)	-2.3%	-0.7%
CCc1cc(C(c2ccc3c(c2)OCO3)N2CCN(C)CC2)c(NC(=O)c2ccco2)s1 (stereo not given)	63.1%[activator]	20.7%

Following part:
canonical_smiles	2A firefly	StopGo RLuc
CCOc1ccc(C(=O)Nc2cccc(-c3nc4ccccc4o3)c2C)cc1[N+](=O)[O-]	-1.1%	-6.6%
CCN(CC)CCOC(=O)c1ccc(NC(=O)CCn2c(=O)oc3ccccc32)cc1	5.9%	7.8%
COc1ccccc1NC(=O)C1=C(C)Nc2nc(-c3ccco3)nn2C1c1cccc(C)c1 (stereo not given)	-18.9%	-8.7%
COC(=O)C1=C(C)NC(=O)C1(NC(=O)c1ccc(F)cc1)C(F)(F)F (stereo not given)	-4.5%	11.9%
CCN(CC)CCNC(=O)C(=O)NCC(c1cccnc1)N1CCN(c2ccccc2)CC1 (stereo not given)	-10.2%	-9.1%
O=C(CCN1CCC(c2ccccc2)C1)c1cccc2ccccc12 (stereo not given)	0.0%	-8.1%
Cc1ccc(C(=O)CC(Nc2ccc(Cl)cc2)c2ccccc2)cc1 (stereo not given)	87.7%[activator]	33.8%[activator]
Cc1cnc2c(S(=O)(=O)NCCCN3CCCC3)cccc2c1	-10.3%	-5.4%
COc1cc(/C=N/O)ccc1OCc1ccc(NC(C)=O)cc1	0.0%	12.5%
COc1cc(NC(=O)c2ccc(C(=O)Nc3cc(OC)c(Cl)cc3OC)cc2)c(OC)cc1Cl	-13.0%	4.5%
COc1ccc(Nc2nc(-c3ccccc3O)nc3ccccc23)c(OC)c1	-6.3%	-6.4%
O=c1oc2ccccc2cc1-c1nc(-c2ccc(N3CCCCC3)cc2)no1	16.6%	-10.1%
CC(C)c1nnc(NC(=O)c2c[nH]c3ccccc3c2=O)s1	184.9%[activator]	18.5%
O=C(O)CC(NC(=O)Cc1ccc(Cl)cc1)c1ccc(F)cc1 (stereo not given)	4.4%	-4.0%
Cc1ccc(-n2ncc(C(=O)Nc3ccc4c(c3)OCCO4)c2C2CCN(C(=O)OC(C)(C)C)CC2)cc1C	8.3%	-13.1%

More records
canonical_smiles	2A firefly	StopGo RLuc
Oc1c(C(c2cccc(Br)c2)N2CCCC2)sc2nc(-c3ccco3)nn12 (stereo not given)	-11.0%	15.4%
CCN1CCN(C(=O)c2ccc3c(c2)N(Cc2cccc(Cl)c2)C(=O)c2ccccc2S3=O)CC1 (stereo not given)	-21.0%	-8.8%
NC(C(=O)O)c1cccnc1 (stereo not given)	-6.2%	-6.7%
CCc1cc(=O)oc2cc(OC(C)C(=O)NCCCn3ccnc3)ccc12 (stereo not given)	-11.4%	-9.8%
Cn1c(=O)c2[nH]c(N3CCN(Cc4ccc(F)cc4)CC3)nc2n(C)c1=O	3.2%	-4.8%
CC1(C)CC(OC(=O)CCCCCCCCC(=O)OC2CC(C)(C)NC(C)(C)C2)CC(C)(C)N1	-5.2%	0.1%
CCCn1c2ccccc2c2cnn(CC(=O)NCCCN(Cc3ccccc3)C(C)C)c(=O)c21	?	-18.4%
CC(NC(=S)NNC(=O)c1ccncc1)c1ccccc1 (stereo not given)	12.7%	18.4%
NC(=O)NC(=O)COC(=O)c1ccccc1Br	43.0%[activator]	0.9%
COc1ccc(CCNC(=O)c2cccc3c(=O)c(C)c(-c4ccccc4)oc23)cc1OC	43.7%	20.3%
COc1ccccc1CNC(=O)CS(=O)Cc1nc(-c2ccc(OC)c(OC)c2)oc1C (stereo not given)	9.1%&84.1%	2.2%&20.0%
CC(Oc1ccc(C#N)cc1)C(=O)NC1CCC2CCCCC2C1 (stereo not given)	-1.3%	24.5%
CC1=C(C(=O)Nc2ccc(Cl)cc2)C(c2ccccc2F)n2nc(SCc3cccc(Cl)c3)nc2N1 (stereo not given)	?	-15.6%
COCCOc1ccc(C(C)NC(=O)C=C(C)C)cc1OC (stereo not given)	19.7%	12.7%
CN(C)C(=S)c1cc(C(C)(C)C)c(O)c(C(C)(C)C)c1	35.0%[activator]	7.3%

(next part)
canonical_smiles	2A firefly	StopGo RLuc
CSc1ccc(-c2nc3cccc(C)n3c2Nc2ccc(Cl)cc2)cc1	96.0%[activator]	0.0%
CC(NC(=O)c1cc2cc(F)ccc2[nH]1)c1cccc(F)c1 (stereo not given)	-2.4%	-20.3%
CCOC(=O)NCC(=O)NCc1ccccn1	-12.4%	-1.6%
CN(CC(=O)Nc1ccc(F)cc1)C(=O)c1ccc(-n2cccc2)cc1	0.9%	28.5%
Cc1csc(NC(=O)c2cccnc2Oc2ccc(F)cc2Br)n1	97.6%[activator]	-8.4%
Cc1ccc(/C=[N+](\[O-])c2ccccc2C)cc1	7.3%	2.1%
CC1(C)CC(=O)C/C(=N/NC(=O)c2ccccc2I)C1	10.3%	0.8%
CCNC(=O)C(C)NC(=O)c1cc2ccccc2oc1=O (stereo not given)	0.0%	0.2%
Cc1ccccc1NC(=O)c1c(C)oc2ncnc(N3CCOCC3)c12	4.9%	1.0%
CCOC(=O)c1cc2c(=O)n3ccccc3nc2n(CC2CCCO2)c1=NC(=O)c1cccc(C(F)(F)F)c1 (stereo not given)	-1.4%	4.0%
CCCCCn1nc(C(=O)Nc2cc(OC)c(OC)cc2C)c2ccccc2c1=O	15.3%	10.4%
CC(C)C(NC(=O)/C=C/c1ccc(Cl)cc1)C(C)C	5.1%	6.0%
CCCCn1nc(C(=O)Nc2cccc(C(F)(F)F)c2)c2ccccc2c1=O	9.2%	-2.7%
O=C(CCNS(=O)(=O)c1ccc2c(c1)CCCC(=O)N2)Nc1cccc(Cl)c1	-8.4%	7.1%
COc1cc(NC(=O)Cn2c(C)nc3c(sc4cccc(F)c43)c2=O)cc(OC)c1OC	2.0%	-5.4%

Remaining list, next part:
canonical_smiles	2A firefly	StopGo RLuc
CC1=C(C(=O)Nc2ccccc2)C(c2cc(Br)ccc2F)n2ncc(C(=O)Nc3ccccc3)c2N1 (stereo not given)	-5.9%	-24.8%
CC(C)c1ccc(OCCNC(=O)Cc2c[nH]c3ccccc23)cc1	1.8%	0.6%
Cc1ccccc1NC(NC(=O)C(C)C)C(Cl)(Cl)Cl (stereo not given)	-4.4%	1.2%
COc1cc(C2c3c(-c4c(C)cc(C)cc4O)n[nH]c3C(=O)N2Cc2ccco2)cc(OC)c1OC (stereo not given)	9.8%	-2.0%
Cc1ccc(C(=NC(=O)c2cccs2)c2ccccc2)cc1	0.0%	22.1%
CNC(=O)C1CCC(Cn2c(=O)c3sccc3n(Cc3ccc(F)cc3)c2=O)CC1 (stereo not given)	-9.4%	-6.8%
CCc1ccc2oc(C(=O)NCc3ccc(C)cc3)cc(=O)c2c1	-10.7%	-8.5%
CC1=CC(=O)C(C(=O)/C=C/c2ccc(OCCC(C)C)cc2)C(=O)O1 (stereo not given)	64.2%[activator]	-7.7%[1.06 µM]
CC(C)c1ccc(NC(=O)/C=C/c2c(F)cccc2Cl)cc1	274.4%[activator]	44.0%[activator]
CC1CN(C(=O)Cc2n[nH]c(=O)c3ccccc23)CCO1 (stereo not given)	22.3%	7.2%
CC(C)CNc1oc(COc2ccc(F)cc2)nc1C#N	91.0%[activator]	3.2%
CC1CC(NC(=O)CCC2CCCCC2)CC(C)(C)C1 (stereo not given)	-20.1%	-12.1%[1.06 µM]
CC(=O)Nc1c(C)noc1/C=C\c1ccc(C)c(S(=O)(=O)Nc2c(C)cccc2C)c1	-3.4%	198.3%[activator]
Cc1ccc(CN(Cc2ccco2)C(=O)c2oc3cc(Br)ccc3c2C)cc1	-10.3%	7.0%
COc1ccc2c(CNCCc3cccs3)c(C(=O)O)n(Cc3ccc(F)cc3Cl)c2c1	17.4%	60.5%[activator]

Further records
canonical_smiles	2A firefly	StopGo RLuc
O=C1CS(=O)(=O)C2(C(=O)N(Cc3ccc(F)cc3)c3ccccc32)N1c1cccc(C(F)(F)F)c1 (stereo not given)	-13.2%	3.5%
COc1ccc(-c2c(NC(=O)c3ccco3)oc3ccc(Cl)cc3c2=O)cc1	15.5%	-6.6%
CCc1nnc2c(N3CCN(c4cc(Cl)ccc4C)CC3)nc3ccccc3n12	-7.7%	-5.6%
O=c1c2c(-c3cccs3)csc2nc(CN2CCOCC2)n1CCOc1ccc(F)cc1	-7.8%	5.6%

For reference, 2 of the compounds above:
canonical_smiles	2A firefly	StopGo RLuc
CCc1nnc2c(N3CCN(c4cc(Cl)ccc4C)CC3)nc3ccccc3n12	-7.7%	-5.6%
O=c1c2c(-c3cccs3)csc2nc(CN2CCOCC2)n1CCOc1ccc(F)cc1	-7.8%	5.6%
